Screening results as filed in PubChem BioAssay.
HPGD inh – HPGD (human) dehydrogenase inhibition; purified HPGD, NADH fluorescence kinetic, PGE2 substrate; P15428; AID 894; 4.3% of 150,000 active; Potency, µM, without a hit: top-dose activity change, negative = inhibition, hits mostly inhibitors; active = well fitted inhibition curve with a large enough effect (not every such curve was filed as active); inconclusive = small, poorly fitted or top-dose-only effect, or another doubt; inactive = no such curve, though single readings can be large or run the other way;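 note: top concentration of the series not given in the record; plate controls included wells without enzyme; inactives centre near -10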
Target sequence (P15428 whole entry, looked up): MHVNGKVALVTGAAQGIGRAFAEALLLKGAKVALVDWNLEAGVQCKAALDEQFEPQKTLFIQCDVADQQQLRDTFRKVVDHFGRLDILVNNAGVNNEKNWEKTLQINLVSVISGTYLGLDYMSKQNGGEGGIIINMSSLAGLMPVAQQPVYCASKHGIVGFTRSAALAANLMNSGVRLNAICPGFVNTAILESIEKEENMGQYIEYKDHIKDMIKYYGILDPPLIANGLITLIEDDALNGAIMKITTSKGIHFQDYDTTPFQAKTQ
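20 nM HPGD preincubated 15 min at room temperature with compound in 50 mM Tris-HCl pH 8, 0.01% Tween 20. Started with 1 mM NAD+ and 30 uM prostaglandin E2; NADH fluorescence (360/450 nm) read 5 times over 30-s intervals, last minus first.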
* hit, by the source's call; ? = inconclusive; & = joins results of further samples. % is set by controls: 0 for no effect and ±100 for the full control effect; potency is the fitted concentration of half-maximal effect. This is a subset, so the mix of outcomes need not match the whole.

SMILES	HPGD inh
O=C(CNS(=O)(=O)c1ccc(Br)s1)NCc1ccc2c(c1)OCO2	-7.6%
COc1cc2nc(C3CCC3)n(NC(=O)C3CCC3)c(=O)c2cc1OC	-11.8%
CCn1c(C)nc2cc(C(=O)N=Nc3c(O)[nH]c4ccccc34)ccc21	-28.5%
CCOC(=O)CNC(=S)N(Cc1cccs1)C1CCCC1	-3.3%
COc1ccc(-c2noc(CN(C(=O)C(C)(C)C)C(C)C)n2)cc1	-5.1%
CN1CCc2cc3c(c4c2[C@H]1[C@H](O)c1ccccc1-4)OCO3	?
N#C/C(=C\Nc1ccccc1SC(F)(F)F)c1nc(-c2ccc(F)cc2)cs1	-12.6%
COCC(C)n1c(C)cc(C(=O)COC(=O)c2oc3ccccc3c2C)c1C (configuration not stated)	-4.8%
CC(C)[C@H](NC(=O)CCn1nnc2ccccc2c1=O)C(=O)O	-5.3%
CCOC(=O)Cc1sc(N)nc1C	-7.0%
O=C(CN1CC(c2ccccc2)CC1=O)N/N=C/c1cc(Br)ccc1O (configuration not stated)	?
COc1ccc(C)cc1NC(=O)NC1CCN(Cc2ccccc2)CC1	-7.5%
CCC(CC)C(=O)c1c[nH]c(C(=O)NCCCn2ccnc2)c1	-9.7%
CCOc1cc(NC(=S)NCC(C)C)c(OCC)cc1NC(=O)c1cccs1	-1.4%
O=[N+]([O-])c1ccc(N2CCN(S(=O)(=O)c3ccccc3[N+](=O)[O-])CC2)cc1NCc1cccnc1	-12.0%
Cc1cnn(-c2cc(N/N=C/c3ccccc3F)ncn2)c1	-17.8%
CCOC(=O)C(NC(C)=O)(Nc1ccc(S(=O)(=O)Nc2onc(C)c2C)cc1)C(F)(F)F (configuration not stated)	-4.9%
COCCSc1ccccc1C(=O)Nc1nccs1	-20.4%
CC1CC[C@@]2(C(=O)O)CC[C@]3(C)C(=CCC4[C@@]5(C)CCC(O)C(C)(C)C5CC[C@@]43C)C2C1C (some centres not stated)	-1.5%
CC(=O)Oc1cccc2c1C(=O)c1c(OC(C)=O)cc(C(=O)O)cc1C2=O	?
Cc1ccc2nc(-c3ccc(NS(C)(=O)=O)cc3)cc(-c3ccccc3)c2c1	?
CCOC(=O)Cc1csc(NC(=O)CSc2nc3cccnc3n2CC)n1	-9.8%
O=C(O)CCCNC(=O)c1cncc(O)c1	?
COC(=O)c1ccc(OCC(=O)Nc2nn(-c3ccccc3)nc2C(N)=O)cc1	?
COc1ccc(C(CC(=O)O)NS(=O)(=O)c2ccc(C)cc2)cc1OC (configuration not stated)	-0.1%
CC(=O)Nc1cccc(NS(=O)(=O)Cc2ccc(Cl)cc2)c1	-12.5%
S=C(c1ccc(N2CCOCC2)cc1)N1CCOCC1	7.94µM*
Cc1ccccc1C(=O)N(C)Cc1ccccc1	-12.5%
O=C(O)CCc1nc(-c2ccccc2-n2cccc2)no1	?
O=S(=O)(Nc1ccccn1)c1ccc(Oc2ccccc2)cc1	-6.2%
COc1cc(C(=O)N/N=C(\C)Cc2ccccc2)cc(OC)c1OC	-0.6%
O=[N+]([O-])c1cc(S(=O)(=O)N2CCCCC2)ccc1NCc1cccc(Cl)c1	-3.5%
CNC(=S)NCc1ccc(OC)cc1	2.3%
CC(=O)Nc1ccc(S(=O)(=O)Nc2nc(C)cc(-n3nc(C)cc3C)n2)cc1	-16.3%
CCOc1cc(S(=O)(=O)N2CCN(Cc3ccccc3)CC2)ccc1Br	-13.1%
c1cnc(Oc2ccc(-c3nnco3)cc2)cn1	-7.9%
Cc1ccc(CNC(=O)/C=C/c2ccc(Br)o2)cc1	-27.9%
COc1ccccc1C1(CC(=O)N2CCCCC2)CCOC(C(C)C)C1 (configuration not stated)	25.1µM*
Cc1ccc(N2CC(C(N)=O)CC2=O)cc1 (configuration not stated)	-1.0%
CN1CCN(S(=O)(=O)c2cccc(S(=O)(=O)c3ccc(Cl)c(Cl)c3)c2)CC1	-3.5%
O=C(Nc1ccccc1)/C(=C/c1ccccc1)c1ccccc1	?
COc1ccc2[nH]c(=O)c(CN(CCN3CCCC3)C(=O)Nc3ccccc3Cl)cc2c1	-29.2%
Cc1cccc2c(SCC(=O)NCC3CCCO3)nc(-c3ccc(F)cc3)nc12 (configuration not stated)	-15.8%
O=C(N/N=C/c1sc2ccccc2c1O)c1cccc2ccccc12	-9.1%
CCCCCCOC(=O)CCn1[nH]c(=O)c2ccccc2c1=O	-12.0%

15 successive entries from above:
SMILES	HPGD inh
COc1cc(C(=O)N/N=C(\C)Cc2ccccc2)cc(OC)c1OC	-0.6%
O=[N+]([O-])c1cc(S(=O)(=O)N2CCCCC2)ccc1NCc1cccc(Cl)c1	-3.5%
CNC(=S)NCc1ccc(OC)cc1	2.3%
CC(=O)Nc1ccc(S(=O)(=O)Nc2nc(C)cc(-n3nc(C)cc3C)n2)cc1	-16.3%
CCOc1cc(S(=O)(=O)N2CCN(Cc3ccccc3)CC2)ccc1Br	-13.1%
c1cnc(Oc2ccc(-c3nnco3)cc2)cn1	-7.9%
Cc1ccc(CNC(=O)/C=C/c2ccc(Br)o2)cc1	-27.9%
COc1ccccc1C1(CC(=O)N2CCCCC2)CCOC(C(C)C)C1 (configuration not stated)	25.1µM*
Cc1ccc(N2CC(C(N)=O)CC2=O)cc1 (configuration not stated)	-1.0%
CN1CCN(S(=O)(=O)c2cccc(S(=O)(=O)c3ccc(Cl)c(Cl)c3)c2)CC1	-3.5%
O=C(Nc1ccccc1)/C(=C/c1ccccc1)c1ccccc1	?
COc1ccc2[nH]c(=O)c(CN(CCN3CCCC3)C(=O)Nc3ccccc3Cl)cc2c1	-29.2%
Cc1cccc2c(SCC(=O)NCC3CCCO3)nc(-c3ccc(F)cc3)nc12 (configuration not stated)	-15.8%
O=C(N/N=C/c1sc2ccccc2c1O)c1cccc2ccccc12	-9.1%
CCCCCCOC(=O)CCn1[nH]c(=O)c2ccccc2c1=O	-12.0%

Later entries.
SMILES	HPGD inh
CN(C)[C@@H]1CCC[C@H]1OC(=O)C(c1ccccc1)c1ccccc1	-6.2%
N=c1oc2cc(O)ccc2cc1C(=O)Nc1nc2ccccc2s1	?
O=C(N/N=C/c1cc2ccccc2nc1Cl)/C(=C/c1cccs1)NC(=O)c1ccccc1	?
Cc1nn(C)c(C)c1S(=O)(=O)N1CCC(C(=O)Nc2ccc3c(c2)OCCO3)CC1	-5.8%
CCc1c(C#N)c(SCCC(=O)Nc2ccc(F)cc2)nc2c1C(=O)CC(C)(C)C2	-11.7%
O=C(NN1C(=O)C2C3C=CC(C4CC34)C2C1=O)c1ccccc1Cl (configuration not stated)	-9.3%
CCOC(=O)Cn1c(=O)c2c(nc(Br)n2CC(=O)OCC)n(C)c1=O	-15.7%
Cc1ccc(NC2=NC(=S)N(CC#N)C23CCCCC3)cc1	-10.1%
CCOc1ccc(C2CC(c3ccc(CC)cc3)n3nc(N)nc3N2)cc1 (configuration not stated)	?
Cc1ccc(C(O)(C(=O)NNc2ccc3ccccc3n2)c2ccc(C)cc2)cc1	-15.0%&-22.4%
O=C(NC1CCCCC1)c1cc([N+](=O)[O-])[nH]n1	?
C[C@@H](C(=O)NCc1ccc(C(F)(F)F)nc1)[C@H]1C[C@]1(C)[C@H](NC(=O)OCc1ccccc1)c1ccccc1	-10.6%
COc1ccc(C)cc1S(=O)(=O)NCCC1=CCCCC1	-1.0%
COc1ccc(N2C(=O)CC(N3CCN(c4ccc(C(=O)c5cccnc5)cc4)CC3)C2=O)cc1 (configuration not stated)	-15.5%
C/C(=N\NC(=O)C(=O)Nc1ccc(C)cc1)c1ccncc1	1.9%
CC(C)NC(=S)NN(c1ccccc1)c1ccccc1	-5.1%
O=C(Nc1cc(C(F)(F)F)ccc1-n1cncn1)c1ccc(Br)cc1	-3.2%
COc1cc(C(=O)NCc2ccc(OCCN(C)C)cc2)cc(OC)c1OC	-7.3%&2.6%
COc1cccc(NC(=O)COc2ncnc3sc(C)c(C)c23)c1	-2.3%
CCN(CC(=O)Nc1ccc2c(c1)OC(F)(F)O2)Cc1nc2ccccc2c(=O)[nH]1	-3.2%
CCCN(CCC)C(=O)Cc1coc2ccc3ccccc3c12	-9.4%
COc1ccccc1C/C(N)=N/OC(=O)COc1cccc(C)c1	-3.2%
COc1ccc(NC2=CC(=O)N(C)C2=O)cc1	-19.9%
c1cncc(C(c2nnnn2C2CCCC2)N2CCCC2)c1 (configuration not stated)	-7.6%
O=C(Nc1cc(C(F)(F)F)ccc1N1CCOCC1)c1ccc(F)cc1	-0.2%
Cc1ccc(NC(=O)CCN2CCN(C/C=C/c3ccccc3)CC2)cc1C	-13.5%
O=C1OCCC1Sc1nnc(-c2ccccc2)o1 (configuration not stated)	-7.3%
CCN(CC)Cc1cc(C(C)=O)ccc1O	-3.1%
Cc1cc(O)c(C(C)C)cc1Cl	-4.2%
CCCCCn1c(CCNC(=O)c2cccs2)nc2ccccc21	-15.3%
CCNc1nc(NCC)nc(Oc2ccc(OCC)nn2)n1	-6.7%
O=C(NCc1ccccc1)C(c1cccs1)N(Cc1cccs1)C(=O)c1cnccn1 (configuration not stated)	-10.6%
CCOCCCN1CN(S(=O)(=O)c2ccc(Cl)cc2)c2nc3ccccc3nc21	-15.8%
Cc1c(C(=O)NC(=S)Nc2ccccc2N2CCCC2)cccc1[N+](=O)[O-]	-9.1%
O=C(c1cnccn1)N(Cc1cccs1)C1(C(=O)NC2CCCCC2)CCCCC1	-4.3%
Cc1cc(C)cc(OCC(=O)NNC(=O)c2cc3ccccc3oc2=O)c1	-18.1%
CCCN(Cc1cc2cc(C)ccc2[nH]c1=O)C(=O)c1cccc(OC)c1	?
Cc1sc2nc(SCC(=O)N(CCO)CCO)n(C3CCCCC3)c(=O)c2c1C	-6.1%
O=C(/C=C/c1ccc(Cl)cc1Cl)N1CCc2ccccc21	-5.7%
Cc1cc(C(=O)O)ccc1[N+](=O)[O-]	-13.6%
CC(=O)NCc1nc2ccccc2n1Cc1ccccc1C	-0.7%
CCOc1ccc(NC(=O)CN(C)S(=O)(=O)c2cccs2)cc1	-4.0%
CCOC(=O)N1CCOCCOCCN(C(=O)OCC)CCOCC1	-4.2%
O=c1c2c(nc3c(-c4cccc(Br)c4)c[nH]n13)CCCC2	?
Cc1ccc(Nc2nnc(SCC(=O)NCc3ccco3)s2)cc1	-24.4%
O=C(NCCC1=CCCCC1)c1ccc(Cl)c(S(=O)(=O)Nc2ccccc2)c1	-10.0%
COc1ccc(NC(=O)c2cccnc2N2CCCCC2)cc1	-13.3%
Oc1c(C(Nc2ccccn2)c2cccnc2)cc(Cl)c2cccnc12 (configuration not stated)	-3.7%
Nc1ccccc1C(=O)/C=C/c1ccccc1	-9.5%
COc1ccccc1C(=O)Nc1cccc(NC(C)=O)c1	-10.4%
O=C(OCc1nc2ccccc2s1)c1cccs1	-13.6%
CCCOc1ccc(C(=O)Nc2cc(-c3nn4c(C)nnc4s3)ccc2C)cc1	1.26µM*
CCc1nnc(NC(=O)c2ccc(N3C(=O)CCC3=O)cc2)s1	-21.4%
C=CCOC(=O)NC(c1ccc(F)c(F)c1)S(=O)(=O)c1ccc(Cl)cc1 (configuration not stated)	-5.6%
CCSc1nc2c(c(=O)[nH]1)C(c1ccncc1)C(C(=O)OC)=C(C)N2 (configuration not stated)	-14.3%
COC(=O)Cn1c(SCc2ccccc2)nc2ccccc21	-4.9%
NS(=O)(=O)c1cc2c(cc1C(F)(F)F)NCNS2(=O)=O	3.2%&15.2%&-2.3%
Cc1c(CC=C(Cl)Cl)c(=O)[nH]c2c(C)cccc12	-14.8%
CCCCN(Cc1ccccc1)S(=O)(=O)c1cc(Br)cc2c1N(C(C)=O)C(C)C2 (configuration not stated)	-9.8%
C[C@H]1CCCC2(CC[N+](C)(CCC[N+](C)(C)C)CC2)C1 (some centres not stated)	-6.1%
Remaining list, next part.
SMILES	HPGD inh
O=C(CN1CCc2ccccc2C1)Nc1ccc(Br)cc1	-8.8%
COc1cc(C2c3c(oc4ccccc4c3=O)C(=O)N2Cc2ccco2)ccc1O (configuration not stated)	-13.3%
CCOc1ccc(/C=C/C(=O)NCc2ccccc2)cc1	-12.3%
CCCC(=O)NC(NC(=S)Nc1ccc(N=Nc2ccccc2)cc1)C(Cl)(Cl)Cl (configuration not stated)	-10.2%
O=C(Nc1cccc(C(F)(F)F)c1)C1CCN(S(=O)(=O)c2cnc[nH]2)CC1	-15.0%
CCOc1cccc(N(C(=O)C2COc3ccccc3O2)C(C(=O)NC2CCCCC2)c2ccc(O)cc2)c1 (configuration not stated)	-9.3%
COc1ccc(C)cc1NC(=O)C(OC(=O)c1ccc([N+](=O)[O-])o1)c1ccccc1 (configuration not stated)	-14.3%
COc1ccc(-c2nn(C)c(=O)c3ccccc23)cc1NC(=O)COc1ccccc1	?
c1nnc2c3c4c(sc3ncn12)CCC4	-16.5%
O=C(CN1C(=O)C2C3C=CC(C3)C2C1=O)Nc1nc2ccccc2[nH]1 (configuration not stated)	2.6%
O=C(CCCc1c[nH]c2ccccc12)Nc1ccc2ccccc2c1	-18.8%
CCn1c(=O)cc(OCC(=O)N(C)c2ccccc2F)c2ccccc21	-5.3%
COC(=O)c1ccc(Cc2ccc(C(=O)OC)o2)o1	-11.1%
Cc1ccc2c(c1)c1ncnc(N3CCc4ccccc4C3)c1n2C	?
CC1=Nn2c(nc(-c3ccccc3)c2-c2ccccc2)N(CC(N)=O)C(=O)C1	-9.1%
CCOC(=O)c1sc(N)c(C#N)c1CSc1nc2ccc(C)cc2[nH]1	-3.3%
CCCn1c(N)c(C(=O)CSc2nnc(-c3cccnc3)n2-c2ccc(C)cc2C)c(=O)[nH]c1=O	-7.7%
CC(C(=O)Nc1ccc(N2CCOCC2)cc1)N1C(=O)c2ccccc2C1=O (configuration not stated)	-8.1%
CC1CC(C)CN(CC(O)COc2ccc3c(c2)CCC3)C1 (configuration not stated)	3.3%
O=C(Cc1ccc(F)cc1)OCC(=O)c1cc2ccccc2o1	?
CCOc1ccc(N(CC(=O)NC(C)(C)C)C(=O)c2ccco2)cc1	-6.1%
